VDR inh – inhibitors of human vitamin D receptor. VDR-SRC2-3 peptide fluorescence polarization, 2 h. Potency, µM, inactives show max response, negative = inhibition, usual class: inhibitors. 400,000 tested, 0.93% active. AID 504847; active = well fitted inhibition curve with a large enough effect; inconclusive = small, poorly fitted or top-dose-only effect, or another doubt; inactive = no such curve, though single readings can be large or run the other way; note: series mostly up to about 120 µM
Target sequence (P11473 whole entry, looked up): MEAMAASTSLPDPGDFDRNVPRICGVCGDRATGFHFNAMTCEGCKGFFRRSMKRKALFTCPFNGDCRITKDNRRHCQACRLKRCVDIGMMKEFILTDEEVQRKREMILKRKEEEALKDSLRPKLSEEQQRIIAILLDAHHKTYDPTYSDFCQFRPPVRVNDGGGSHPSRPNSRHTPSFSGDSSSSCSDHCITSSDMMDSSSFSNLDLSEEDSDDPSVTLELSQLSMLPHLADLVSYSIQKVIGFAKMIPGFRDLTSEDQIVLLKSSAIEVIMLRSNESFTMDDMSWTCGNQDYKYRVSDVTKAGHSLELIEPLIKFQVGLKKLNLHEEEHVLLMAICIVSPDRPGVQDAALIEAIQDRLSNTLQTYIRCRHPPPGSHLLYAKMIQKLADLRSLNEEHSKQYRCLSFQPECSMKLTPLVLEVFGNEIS
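Measured by FP: displacement of SRC2-3 coactivator peptide from VDR by library compounds, following a two-hour ambient incubation.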
An asterisk follows results filed as active; u = inconclusive; & = joins results of further samples. % is set by controls: 0 for no effect and ±100 for the full control effect; potency is the fitted concentration of half-maximal effect. The list is partial. The share of hits here may be higher or lower than overall.

SMILES	VDR inh
CC(=O)Nc1ccc(-c2cn3cc(C)ccc3n2)cc1	-17.7%
COc1ccc(NC(=O)CN(Cc2ccco2)Cc2ccco2)cc1S(=O)(=O)N1CCCCC1	u
Fc1ccc(C(NCCc2ccccc2)c2nnc(-c3ccccc3Cl)o2)cc1 (stereo unspecified)	-0.6%
COCCCNCC(O)COc1ccccc1F (stereo unspecified)	-6.8%
COc1ccc(S(=O)(=O)Nc2ccc3c(c2)OCCO3)cc1OC	10.9%
CN(C)c1ccc(/C=N/NC(=O)c2ccco2)cc1	-2.7%
O=C(NN1CCOCC1)c1cc(-c2ccccc2)nc2ccccc12	5.4%
CC1(C)COC(/C=C/c2ccc([N+](=O)[O-])cc2)=N1	u
COc1cccc(CNc2ncnc3cc(OC)c(OC)cc23)c1	15.3%
CN1CCN(NC(=O)c2ccc(Cl)c(S(=O)(=O)Nc3ccc(Cl)cc3)c2)CC1	-10.4%
COc1ccc(-c2cc(C(=O)N3CCN(c4ccccc4OC)CC3)c3cc(C(C)C)ccc3n2)cc1	9.5%
Cc1c(Br)c([N+](=O)[O-])nn1CC(=O)NC1CCCCCC1	-3.5%
COc1ccc(C(=O)Nc2ccc(C3=NNC(=O)CC3C)cc2NC(=O)c2ccc(OC)cc2)cc1 (stereo unspecified)	-12.1%
COc1ccc(-n2cnc(N)c2C(=O)c2cccc([N+](=O)[O-])c2)cc1	-20.8%
N/C(=N\OC(=O)CCC1CCCCC1)c1cccc([N+](=O)[O-])c1	0.2%
O=C(CC1N=C2c3ccccc3N=C(SCC(=O)Nc3ccc(F)cc3)N2C1=O)NCc1ccc2c(c1)OCO2 (stereo unspecified)	-11.0%
CN(C#N)c1nc(Cl)nc(Nc2cccc(Cl)c2)n1	-5.2%
COCn1c(-c2ccc(OC)cc2)nc2ccccc21	-18.5%
COc1ccccc1NS(=O)(=O)c1cc(C(=O)Nc2ccc(S(=O)(=O)Nc3onc(C)c3C)cc2)ccc1C	-17.4%
O=C(c1cccc(C(F)(F)F)c1)C1CCCN(C(=O)C2CCOCC2)C1 (stereo unspecified)	-6.0%
COc1cc(OC)c(NC(=O)C2CCCN2C(=O)OCc2ccccc2)cc1Cl (stereo unspecified)	-3.6%
COc1ccc(OCCCON2C(=O)c3ccccc3C2=O)cc1	-13.7%
O=C(c1cc(COc2ccc3ncccc3c2)on1)N1CCCC1	22.7%
Brc1ccccc1OCCCCn1cnc2ccccc21	-6.2%
CCC(=O)N1c2ccccc2CC1C(=O)NCc1cc(Br)ccc1OC (stereo unspecified)	13.8%
O=C(O)CSc1ncnc2nc[nH]c12	4.8%
CNC(=O)COC(=O)c1cc(NC(=O)c2ccco2)c(OC)c(OC)c1	-1.7%
O=C(COC(=O)c1nc(Cl)ccc1Cl)Nc1ncc(Cl)cc1Cl	-2.3%
NCCCC(N)CC(=O)NCC1NC(=O)C(CO)NC(=O)C(N)CNC(=O)C(C2CCN=C(N)N2)NC(=O)/C(=C/NC(N)=O)NC1=O (stereo unspecified)	-16.4%
CCCN(CCC)CCCNC(=S)Nc1ccc2nc(N3CCN(C)CC3)cc(C)c2c1	13.3%
CCn1c(CNC(=O)c2ccc(OC)cc2)nnc1SC	-21.2%
CSc1cccc(NC(=O)CCC(=O)O)c1	3.4%
COc1cc(/C=N/NC(=O)CN2CCCCC2)ccc1OCc1ccccc1	-2.1%
COc1cc(CNc2ncc(-c3ccc(Cl)cc3)n2C)cc(OC)c1OC	-19.7%
O=S(=O)([N-]c1nc2ccccc2nc1-n1cc[n+](Cc2ccccc2)c1)c1ccccc1	9.0%
CCN(C(=O)COC(=O)c1ccc2[nH]c3c(c2c1)CCCC3)C1CCS(=O)(=O)C1 (stereo unspecified)	3.0%
COCCCNC(=S)NNC(=O)Cn1nc(C)c(Br)c1C	8.2%
Cc1ccc2c(C)c(C(=O)Nc3ccc(S(N)(=O)=O)cc3)oc2c1C	22.8%
C#CCOCCOCCOCCNc1nc(N2CCN(C(=O)C(Cc3ccc(O)cc3)n3cc(C(N)CC(C)C)nn3)CC2)nc(N2CCN(C(=O)C(Cc3ccc(O)cc3)n3cc(C(N)C(C)CC)nn3)CC2)n1 (stereo unspecified)	-17.3%
O=C(Nc1ccon1)C(Sc1ccccc1)c1ccccc1 (stereo unspecified)	-6.3%

Reformatted: 3 of the compounds above.
VDR inh | Molecule
22.7% | O=C(c1cc(COc2ccc3ncccc3c2)on1)N1CCCC1
-17.3% | C#CCOCCOCCOCCNc1nc(N2CCN(C(=O)C(Cc3ccc(O)cc3)n3cc(C(N)CC(C)C)nn3)CC2)nc(N2CCN(C(=O)C(Cc3ccc(O)cc3)n3cc(C(N)C(C)CC)nn3)CC2)n1 (stereo unspecified)
3.0% | CCN(C(=O)COC(=O)c1ccc2[nH]c3c(c2c1)CCCC3)C1CCS(=O)(=O)C1 (stereo unspecified)

The list goes on.
SMILES	VDR inh
Nc1ccc(C(=O)Nc2cccc3ncccc23)cc1	-0.2%
CCn1ccc(C(=O)N2CCN(c3ncccn3)CC2)n1	-1.6%
Cc1cccc(C(=O)NNC(=O)c2c(-c3ccccc3Cl)noc2C)c1O	1.9%
O=C(NCC(=O)N(Cc1ccco1)C(C(=O)NC1CCCCC1)c1cccnc1)c1cccs1 (stereo unspecified)	3.3%
CCCOc1ccc(Cc2nc(N)nc(N)n2)cc1	0.6%
CCn1c(SCC(=O)Nc2ccc(OC)c(OC)c2)nnc1-c1c[nH]c2ccccc12	-6.1%
O=C(N/C(=C/c1ccccc1F)C(=O)N1CCCCC1)c1ccccc1	-12.5%
CCCN(N=Nc1cccc([N+](=O)[O-])c1)c1cccc([N+](=O)[O-])c1	-4.8%
Clc1ccc(-c2nc3ncccn3c2Nc2ccc3c(c2)OCO3)cc1	-9.2%
Cc1ccc(SCC(=O)NNC(=O)c2ccc(S(C)(=O)=O)cc2)cc1	1.3%
CCOc1ccc(C(C)=O)cc1CSc1nnc(N)s1	19.4%
CC(CN1CCC(n2nccc2NC(=O)C2CCCC2)CC1)c1ccccc1 (stereo unspecified)	12.0%
Oc1ccc(CNc2ccc(F)cc2)c2cccnc12	u
C=CCc1ccccc1OCC(O)CN1C(=O)c2ccccc2C1=O (stereo unspecified)	-4.7%
Clc1ccccc1Nc1ncnc2c1nnn2Cc1ccccc1	-4.4%
Cc1ccc(/C=C/C(=O)OCC(=O)Nc2cccnc2Cl)cc1	4.1%
COc1ccc(Cl)cc1NC(=O)C1CC(=O)N(c2ccc(F)cc2)C1 (stereo unspecified)	2.1%
Cc1ccc(CNC(=O)c2ccc(CSCc3ccccc3C)o2)cc1	-3.7%
O=C1CN(S(=O)(=O)c2ccc([N+](=O)[O-])cc2)CC(=O)N1	-0.5%
Nc1ncnc2c1ncn2C1CCC(CO)C(O)C1 (stereo unspecified)	7.1%
COCCNC(=O)CSc1nnc(-c2ccccc2F)n1Cc1ccccc1	3.2%
COc1ccc(NS(=O)(=O)c2ccc(OC)c(OC)c2)cc1OC	u
Cc1sc2nc3c(SC(C)C(=O)O)cc(C(=O)c4ccccc4O)cn3c(=O)c2c1C (stereo unspecified)	-9.1%
O=C(CSc1nc(-c2ccco2)cc(C(F)(F)F)n1)Nc1ccc2c(c1)OCO2	0.8%
COc1cccc(C2C(C(=O)/C=C/c3ccco3)=C(O)C(=O)N2CCN2CCOCC2)c1 (stereo unspecified)	24.4%
Cc1ccc(OCc2nnc(SCC(=O)N3c4ccccc4Sc4ccc(Cl)cc43)o2)cc1	-9.1%
O=C(NCc1ccc(Cl)cc1)c1cc2c(nc3sccn32)s1	3.7%
O=C(CN1CCN(c2ccccc2)CC1)Nc1nccs1	11.7%
CCOC(=O)Cc1csc(NC(=O)CCCc2ccccc2)n1	5.4%
NC(=O)c1nsc(C(=O)N(CC(=O)NCc2ccc3c(c2)OCO3)C2CCCCC2)c1N	-13.9%&-10.9%
COc1ccc(NC(=O)C2OC3OC(C)(C)OC3C3OC(C)(C)OC23)cc1 (stereo unspecified)	15.2%
CCOC(=O)C(NC(C)=O)(Nc1ccc(S(=O)(=O)Nc2cc(C)nc(C)n2)cc1)C(F)(F)F (stereo unspecified)	0.2%
Cc1cc(C)n2c3c(c(C#N)c2n1)CC(C)(C)OC3	2.1%
COC(=O)CSc1nnc(-c2ccco2)n1-c1ccc(C)cc1	-23.2%
COC(=O)c1ccccc1C(=O)N(c1ccccc1)c1ccccc1	5.2%
Cc1c(NC(=O)/C(C#N)=C/c2ccc(-c3ccc(Cl)cc3)o2)c(=O)n(-c2ccccc2)n1C	-22.3%
NC(=O)CC(NC(=O)Cc1cccc2ccccc12)c1ccc(NC2CCC2)c([N+](=O)[O-])c1 (stereo unspecified)	-11.8%
COc1cc(OC)cc(C(=O)NNC(=O)c2cc(=O)[nH]c3ccccc23)c1	7.7%
O=C1CCCc2cc(S(=O)(=O)NCC3CCC(C(=O)Nc4ccc(Cl)cc4)CC3)ccc2N1 (stereo unspecified)	0.0%
COc1ccccc1C1OCC(C)([N+](=O)[O-])CO1 (stereo unspecified)	-8.9%
COc1cccc(NC(=O)c2cc(CN3C(=O)c4ccccc4C3=O)ccc2OC)c1	-5.2%
C/C(=N\NC(=S)NCc1ccccc1)c1ccc(Cl)s1	10.7%
Clc1ccccc1-c1nc2ccccc2c2nncn12	2.6%
COc1ccc(C(=O)C(OC(=O)CNC(=O)c2ccco2)c2ccccc2)cc1 (stereo unspecified)	1.8%
CCN(C(=O)COC(=O)CSc1cc(C)c2ccccc2n1)c1ccccc1	3.3%
O=C(CCn1c(=O)c2ccccc2n(CC(=O)NC2CCCC2)c1=O)NCc1ccco1	-4.0%
O[C@@](CCN1CCCCC1)(c1ccccc1)[C@@H]1C[C@H]2C=C[C@@H]1C2	4.8%
O=C(N/N=C/c1ccc[nH]1)c1ccc(COc2cccc3cccnc23)cc1	-2.2%
O=C(N/N=C\c1ccc(F)cc1)c1cc(OCC(F)(F)F)ccc1OCC(F)(F)F	0.1%
Cn1c(=O)cc(Nc2ccccc2)[nH]c1=O	7.6%
CCC(NC(=O)c1ccccc1Br)c1ccccc1 (stereo unspecified)	6.3%
COC(=O)C1OC(OC2CC[C@]3(C)C(CC[C@@]4(C)[C@@H]3CC=C3[C@@H]5CC(C)(C)CC[C@]5(C(=O)OC5OC(CO)C(O)C(O)C5O)CC[C@]34C)C2(C)C)C(O)C(O)C1O[C@H]1OCC(O)C(O)C1O (stereo partly specified)	-11.2%
CCOc1ccc(N(CC(=O)NC(C)(C)C)S(=O)(=O)c2c(C)noc2C)cc1	-5.7%
Cc1ccc(S(=O)(=O)N2CCC(C(=O)OCC(=O)NCc3cccc(Cl)c3)CC2)cc1C	7.6%
O=C(CCSc1ccccc1)NCCN1CCOCC1	6.8%
Cc1ccc(NC(=O)c2cc(N3C(=O)C=CC3=O)ccc2N2CCOCC2)cc1Cl	44.7µM*
COC(=O)c1cc2sccc2n1Cc1ccc(F)cc1	9.5%
Cc1ccc(C=Nc2ccc(N(C)C)cc2)o1	1µM*
CCCCCN(C(=O)CCC(=O)OCCOc1ccc(OCC)cc1)c1c(N)n(CCCC)c(=O)[nH]c1=O	6.5%
O=C(COc1ccccc1-c1nc(-c2ccccc2)no1)Nc1ccc([N+](=O)[O-])cc1	7.8%

A portion from the list above, as a working copy:
SMILES	VDR inh
CCN(C(=O)COC(=O)CSc1cc(C)c2ccccc2n1)c1ccccc1	3.3%
O=C(CCn1c(=O)c2ccccc2n(CC(=O)NC2CCCC2)c1=O)NCc1ccco1	-4.0%
O[C@@](CCN1CCCCC1)(c1ccccc1)[C@@H]1C[C@H]2C=C[C@@H]1C2	4.8%

Four entries drawn at random from the list so far, as already listed:
SMILES	VDR inh
O=C(N/N=C\c1ccc(F)cc1)c1cc(OCC(F)(F)F)ccc1OCC(F)(F)F	0.1%
COC(=O)c1cc2sccc2n1Cc1ccc(F)cc1	9.5%
Cc1ccc(S(=O)(=O)N2CCC(C(=O)OCC(=O)NCc3cccc(Cl)c3)CC2)cc1C	7.6%
O=C(CCn1c(=O)c2ccccc2n(CC(=O)NC2CCCC2)c1=O)NCc1ccco1	-4.0%

Later entries:
SMILES	VDR inh
Cc1oc(-c2ccccc2F)nc1CS(=O)(=O)CC(=O)N1CCOCC1	8.0%
N/C(=N\O)c1ccc(Cl)cc1Cl	-13.4%
Cc1ccccc1N1C(=O)N(c2cccc(C(F)(F)F)c2)C2CS(=O)(=O)CC21 (stereo unspecified)	-6.7%
COc1ccccc1S(=O)(=O)Nc1cc(C)nn1-c1ccc(C)cc1	-1.2%
Nc1cccc(-c2nc3ncccc3o2)c1	-5.2%
COc1cc(NC(=O)OCc2ccccc2)c2ncccc2c1	0.1%
CCC(=O)OC1=CN(Cc2ccccc2)S(=O)(=O)c2ccccc21	4.5%
Nc1[nH]c(=S)[nH]c(=O)c1-c1ccccc1	-2.1%
CN(C(=O)c1ccc(NC(=O)Cc2ccc(NC(=O)C3CCN(C(=O)C4CC4)CC3)cc2)cc1)C1CCCC1	-12.0%
COc1cccc(-c2nnc(NC(=O)c3ccc(S(=O)(=O)N4CCOCC4)cc3)o2)c1	4.0%
Cc1cc(C)cc(NC(=O)N2CCN(C(=O)c3nsc4ccccc34)CC2)c1	3.2%
CCOc1ccc(S(=O)(=O)N2CCN(c3ccccc3)CC2)cc1C(N)=O	-5.0%
Cc1nnc(C)n1/N=C/c1ccccn1	0.1%
COc1ccc2[nH]c(=O)c(CN(Cc3cccs3)S(=O)(=O)c3c(C)ccc4nsnc34)cc2c1	-15.1%
COc1ccc(-n2c(COc3ccccc3)nnc2SCc2ccc(C#N)cc2)cc1	2.3%
O=S(=O)(c1cccs1)N1CN(CC2CCCO2)c2nc3ccccc3nc21 (stereo unspecified)	20.1%
Cc1ccc(NC(=O)C(=O)c2cc(C)n(-c3ccc(F)cc3)c2C)cc1C	-0.5%
NC(=O)CC(NC(=O)Cc1cccc2ccccc12)c1ccc(NC2CCCC2)c([N+](=O)[O-])c1 (stereo unspecified)	-6.0%
O=C(Nc1cccc(C(F)(F)F)c1)c1cccnc1N1CCCC1	-3.3%
O=C(NCCc1ccccc1)c1cnc2sc(N3CCOCC3)nn2c1=O	-0.9%
COc1cc(C(=O)N2CCC(n3c(C)nc4cc(F)ccc43)CC2)cc(OC)c1OC	3.5%
